Mtb H37Rv: Confirmatory growth inhibition assay against Mycobacterium tuberculosis H37Rv, potency (AID 1949); inhibition, % at 10 µg/mL, or IC50 in µg/mL where a hit was titrated; 1.6% of 100,000 active; most inactive calls were filed without a number and no value below 0 was filed;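 active = confirmed in a dose series; inconclusive = about 50% or more but not retested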;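 also: bacteria grown 7 days with compound before Alamar blue readout; 0% = untreated bacteria and 100% = reference antibiotic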
* hit, by the source's call; i = inactive; ? = inconclusive. Only part of the results is shown; rates above refer to the full screens.

SMILES | Mtb H37Rv
Cc1nc(NC(=O)c2cccs2)ccc1Br | 7.7%
O=C(CSc1n[nH]c(-c2ccncc2)n1)Nc1sc2c(c1C(=O)NCc1ccccc1)CCCC2 | 0.4%
CN(Cc1ccccc1)C1CCN(Cc2cccnc2)CC1 | 0.9%
CC(=O)C(C)Sc1ncnc2scc(-c3ccc(C)cc3)c12 (centres undefined) | 7.4%
CC(C)NCCCOc1ccc2ccccc2c1Br | i
O=C(c1ccccc1)c1ccc2nc(-c3cccc(NC(=O)C4CC4)c3)[nH]c2c1 | 7.78µg/mL*
O=C(NCCc1ccccc1)C(Cl)Cl | i
CC(C)COC(=O)Oc1ccc(I)cc1 | i
CC(C)(C)NC(=S)NCc1ccccc1 | i
CC1CCCC(C)N1NC(=S)NC1CCCCC1 (centres undefined) | i
CCCC(CCC)C(=O)Nc1cccc(-c2nc3ccccc3o2)c1 | 0.9%
CSc1nnc(-c2ccccc2N)c(=O)[nH]1 | i
O=C(NC1CCS(=O)(=O)C1)C1CCCN(S(=O)(=O)c2ccccc2)C1 (centres undefined) | i
CCC(Oc1ccccc1)C(=O)N1CCCCC1C (centres undefined) | i
CS(=O)(=O)N(CC(=O)O)C1CCCCC1 | 2.2%
CCOC(=O)c1ccc(-n2c(C)ccc2C)cc1[N+](=O)[O-] | ?
Cc1ccccc1NC(=O)C1CC(=O)OC12CCOC(C)(C)C2 (centres undefined) | i
Cc1oc(C(C)(C)C)cc1C(=O)NC(Cc1ccccc1)C(=O)O (centres undefined) | i
CCCC(=O)NC(=S)Nc1ccc(S(=O)(=O)N2CCc3ccccc32)cc1 | 1.2%
COc1ccc(Cl)cc1NC(=O)C(=O)NC(C)c1ccccc1 (centres undefined) | i
O=C(O)C1CCCCC1C(=O)NCc1ccc(F)cc1 (centres undefined) | i
CCOc1ccc(CNc2sc3c(c2C(=O)Nc2ccc(OC)cc2)CCC3)cc1 | i
Cc1cc(I)ccc1NC(=O)Cc1ccccc1[N+](=O)[O-] | i
COc1ccc([N+](=O)[O-])cc1NC(=O)c1ccnn1C | i
CCOc1ccccc1NC(=O)c1ccc(NC(C)=O)cc1 | i

Another view of four compounds above:
CCC(Oc1ccccc1)C(=O)N1CCCCC1C (centres undefined)
- Mtb H37Rv = i

CS(=O)(=O)N(CC(=O)O)C1CCCCC1
- Mtb H37Rv = 2.2%

CCOC(=O)c1ccc(-n2c(C)ccc2C)cc1[N+](=O)[O-]
- Mtb H37Rv = ?

Cc1ccccc1NC(=O)C1CC(=O)OC12CCOC(C)(C)C2 (centres undefined)
- Mtb H37Rv = i

The list continues.
SMILES | Mtb H37Rv
C=CCN1C(=S)N(c2ccc(C)cc2)C2CS(=O)(=O)CC21 (centres undefined) | i
N#Cc1ccc(C(c2ccc(C#N)cc2)(C(F)(F)F)C(F)(F)F)cc1 | i
COC(=O)c1c(C)[nH]c(C(=O)CSc2ncnc3sc(C)c(-c4ccccc4)c23)c1C | 2.1%
CCc1ccc(NC(=O)CSc2nnc(NC(C)=O)s2)cc1 | i
COc1cccc(NC(=O)C2CC(=O)N(c3ccc(F)cc3)C2)c1 (centres undefined) | i
CCOc1ccc(NC(=S)Nc2ccccc2C2(C)CC2)cc1 | ?
COc1ccc(OC)c(NC(=O)c2ccc(CSc3nnnn3C)cc2)c1 | i
COCCNC(=O)C1CCN(Cc2cccc(OCc3ccccc3)c2)CC1 | i
COc1cc(C)ccc1OCCSc1ncccn1 | i
Cn1c(=O)c2c(nc(Oc3ccc4c(c3)OCO4)n2Cc2ccccc2)n(C)c1=O | i
CC(=O)CSc1nnc(-c2ccc(C)cc2)o1 | i
C/C=C(\CS(=O)(=O)c1ccccc1)S(=O)(=O)c1ccccc1 | i
C/C(=C\c1ccccc1)C1C(C#N)=C(N)Oc2n[nH]c(C)c21 (centres undefined) | 3.4%
CC(Oc1ccc(-c2ccccc2)cc1)C(=O)Nc1nnc(C2CCCO2)s1 (centres undefined) | i
C=CCNC(=O)c1ccccc1NC(=O)CN(c1ccc(F)cc1)S(=O)(=O)c1ccccc1 | i
O=C(CSc1ncnc2sc3c(c12)CCCC3)Nc1cccc(F)c1 | i
CC(C)c1ccccc1NC(=O)c1ccc(CN(c2ccccc2)S(=O)(=O)c2ccccc2)cc1 | i
O=C(Nc1ccccc1C(=O)N1CCc2ccccc2C1)c1ccccc1 | 1.5%
N#Cc1c(NC(=O)C2CC(=O)NN2Cc2ccccc2)sc2c1CCCC2 (centres undefined) | i
O=C(NNc1cccc(Cl)c1)C(=O)c1cccs1 | 32.5%
COc1ccc2c(c1)CC1=C2CCC2(C)C(=O)CCC=C12 (centres undefined) | ?
CCCCCOc1ccc(NC(=O)C(=O)NCc2cccs2)cc1 | i
Cc1cc(OCCNCCO)ccc1C(C)C | i
C/C(=N\N1CCN(Cc2cccc3ccccc23)CC1)c1ccncc1 | i
COC(=O)c1ccc(NC(=S)NCCCN2CCCC2=O)cc1 | i

Continuation:
SMILES | Mtb H37Rv
CCC(=O)NC(c1ccco1)c1c(O)c(C(=O)O)cc2ccccc12 (centres undefined) | i
COC(=O)Nc1scc(-c2ccc(C)cc2)c1C(=O)NC1CC1 | 8.0%
COc1ccc(C(=O)CSc2nnc(COc3ccccc3C)n2-c2ccccc2)cc1 | i
CC(C)C1Cc2c(sc3nc(SCC(=O)NC(c4ccccc4)c4ccccc4)nc(N)c23)CO1 (centres undefined) | 1.0%
COc1ccc2c(c1)Cc1sc(NC(=O)C(c3ccccc3)c3ccccc3)nc1-2 | 38.7%
O=C(NNC(=S)NCc1ccco1)c1ccc(OC2CCCC2)cc1 | i
COc1cccc(NC(=O)CSc2nnc(Cc3ccccc3)o2)c1 | i
CC1(C)CC(=O)c2cc(C(=O)Nc3ccccc3Cl)c(=O)n(-c3ccc(Cl)cc3)c2C1 | i
Cc1ccccc1NC(=O)CS(=O)(=O)c1ccccc1 | i
COc1ccc(C(=O)Nc2ccc(S(=O)(=O)Nc3cc(OC)ncn3)cc2)cc1 | i
CCCCC(=O)Nc1nc(-c2ccc(S(=O)(=O)N3CCOCC3)cc2)cs1 | 3.2%
COc1ccc(CC(=O)O/N=C(\N)Cc2cccc3ccccc23)cc1 | i
COc1ccc(-n2c(SCC(=O)Nc3ccc(C)cc3C)nnc2-c2ccccc2)cc1 | i
Clc1ccc(OCCOCCn2cncn2)cc1Cl | i
O=C(COc1ccc([N+](=O)[O-])cc1)NCc1ccncc1 | i
CC(=O)c1cccc(NC(=O)CCCOc2cc(C)ccc2C)c1 | 1.0%
Cc1cc(=O)oc2cc(OC(=O)c3sc4cc([N+](=O)[O-])ccc4c3Cl)ccc12 | 0.0%
O=c1[nH]c(SCc2ccc(Br)cc2)nc2sc3c(c12)CCC3 | 1.0%
COc1ccc2nc(SCC(=O)Nc3ccc(Oc4ccccc4)cc3)[nH]c2c1 | i
CC1CCCN(Cc2c(O)ccc3c(=O)c(-c4nc5ccccc5s4)c(N)oc23)C1 (centres undefined) | 23.6µg/mL*
Cc1ccc(-c2nnc(SCC(=O)Nc3ccc(C)c(C)c3)n2C)cc1 | i
CCN(CC)S(=O)(=O)c1ccc2nc(NC(=O)c3ccccc3OC)sc2c1 | i
CCCN1C(=O)c2ccc(-c3nc4ccc(OC(C)=O)cc4c(=O)o3)cc2C1=O | i
COc1ccc(CCC(=O)NCCc2cccc(Cl)c2)cc1 | 1.6%
COc1ccc(C(=O)CSc2nc3nc(C)cc(C)n3n2)cc1OC | i

New compounds follow
SMILES | Mtb H37Rv
Cc1onc(-c2ccccc2)c1C(=O)Nc1cccc(OC(C)C)c1 | i
COc1ccc(NC(=O)N2CCCC2)cc1OC | i
N#C/C(=C\c1ccc(-c2cccc(C(F)(F)F)c2)o1)C(N)=S | i
Cc1ccc(S(=O)(=O)C(F)(F)F)cc1N | i
CCN(CC)S(=O)(=O)c1ccc(OC)c(NC(=O)COC)c1 | i
N#Cc1ccccc1NC(=O)CSc1nc2cc3ccccc3cc2[nH]1 | 2.68µg/mL*
COC(=O)C1=C(C)n2nnnc2NC1c1cccc(Br)c1 (centres undefined) | i
O=C1/C(=C\c2ccc(-c3cccc(Cl)c3)o2)SC(=S)N1Cc1ccccc1 | i
COc1ccc(C(=O)n2nc(C)cc2C)cc1OC | i
CCOC(=O)C1CCCN1C (centres undefined) | i
CC(=O)OCCNC(=O)c1cc2ccccc2oc1=O | i
COc1ccc(S(=O)(=O)n2nc(C)cc2C)cc1[N+](=O)[O-] | i
O=C(CSc1ccccc1)Nc1ccncc1 | i
COc1ccc(OC)c(NC(=O)C2CCN(C(=O)c3ccc(OC)c(OC)c3)CC2)c1 | i
O=C(Nc1ncc2c(n1)CC(c1ccco1)CC2=O)c1ccc(F)cc1 (centres undefined) | i
CN(C)CCNC(=O)C(=O)Nc1ccc(F)cc1 | i
CN(C)C(=O)c1cn(-c2ccccc2)nc1-c1cccc([N+](=O)[O-])c1 | i
Cc1c(NC(=O)c2sc3cccc(F)c3c2Cl)c(=O)n(-c2ccccc2)n1C | i
COc1ccc(C(=O)n2c(SC)nc3ccccc32)cc1OC | i
COc1cccc(C(=O)N2CCN(S(=O)(=O)c3ccc(C)cc3)CC2)c1OC | i
O=C(Nc1nnc(-c2ccncc2)s1)c1cccs1 | 19.3%
Cc1cc(C(=O)O)c2cc(Br)ccc2n1 | i
O=C(O)CCc1ccc(-c2ccccc2)n1-c1cccc(O)c1 | i
O=[N+]([O-])c1cc(Cl)ccc1-c1nc(-c2ccccc2)no1 | i
COc1ccc2c(c1)c(=O)oc1cc(OCc3ccccc3F)ccc12 | i

Additional results
SMILES | Mtb H37Rv
COc1cccc(C2NC(=O)NC(C)=C2C(=O)Nc2cc(C)cc(C)c2)c1OC (centres undefined) | i
CCCc1cc(=O)[nH]c(SCC(=O)Nc2c(C)cccc2C)n1 | i
Cc1c(NC(=O)CSCc2ccc(Cl)cc2Cl)cccc1C(=O)O | i
CCc1ccc(OC(=O)c2ccccc2C)c(Br)c1 | i
CC(=O)Nc1ccc(C(=O)n2nc(C)cc2C)cc1 | 9.4%
COc1ccc(C(=O)C(C)=O)cc1OC | i
O=C(COc1ccc(S(=O)(=O)NC2CCCCC2)cc1)N1CCN(c2cccc(Cl)c2)CC1 | i
Cn1c(=O)n(C)c2cc(S(=O)(=O)NNc3ccccc3)ccc21 | i
O=C(Nc1nnc(SCc2ccc(Br)cc2)s1)c1ccc(Cl)cc1Cl | 3.8%
O=C1c2ccc(-c3nc4ccc(Br)cc4c(=O)o3)cc2C(=O)N1Cc1ccccc1 | 6.1%
CCOC(=O)c1c(NC(=S)NNC(=S)NC2CCCCC2)sc2c1CCCC2 | 12.9%
CC(C)CN1C(=O)c2ccc(C(=O)Nc3cccc(I)c3)cc2C1=O | i
N#Cc1c(SCc2ccccc2)nc2c(c1-c1ccc(O)cc1)CCC2 | 0.7%
O=C(O)CN(c1ccccc1)S(=O)(=O)c1ccc(Cl)cc1 | i
COc1cc(C)ccc1S(=O)(=O)N1CCN(c2ccc(Cl)c(Cl)c2)CC1 | 6.2%
Cc1ccc(-c2cc(C(=O)Nc3nnc(C)s3)c3ccccc3n2)s1 | i
CC(=O)n1nc(-c2ccccc2)nc1N | i
Cc1ccc(NC(=S)NCc2ccc(F)cc2)c([N+](=O)[O-])c1 | i
COc1ccc(S(=O)(=O)NC(C)(C)CC(C)(C)C)cc1 | i
Nc1c(-c2ccccc2)cnc2c(-c3ccccc3)c(C(F)(F)F)nn12 | 2.1%
NC(=O)c1cc(-c2ccccn2)nc2ccc(Cl)cc12 | i
CCOc1ccc(C(C)=O)cc1CN(CC)CC | i
CC(=O)COc1ccc2c(-c3ccccc3)cc(=O)oc2c1C | 40.6%
CCC(C(=O)NC1CCCCCCC1)c1ccccc1 (centres undefined) | i
N#Cc1ccc(C(=O)Nc2ccc(I)cc2Cl)c(F)c1 | 1.2%

Pulled one by one from the entries so far:
SMILES | Mtb H37Rv
CC(=O)COc1ccc2c(-c3ccccc3)cc(=O)oc2c1C | 40.6%
N#Cc1ccc(C(=O)Nc2ccc(I)cc2Cl)c(F)c1 | 1.2%
CCC(C(=O)NC1CCCCCCC1)c1ccccc1 (centres undefined) | i
COc1ccc(C(=O)C(C)=O)cc1OC | i

Remaining list, next part.
SMILES | Mtb H37Rv
O=C(Nc1ccccc1)c1ccc(N2CCOCC2)c(S(=O)(=O)N2CCOCC2)c1 | i
O=C(CS(=O)(=O)c1ccc2ccccc2c1)c1cc2ccccc2oc1=O | i
CCc1ccc(NC(=O)CN(c2ccc(Br)cc2)S(C)(=O)=O)cc1 | 5.3%
O=C(Nc1nnc(Cc2ccccc2)s1)c1sc2ccccc2c1Cl | i
Cc1ccc2c(=O)c(CN(C)C)c(C)[nH]c2c1C | i
Cc1noc(C)c1C(=O)Nc1ccc2c(c1)CCC2 | i
CCOC(=O)c1ccc(NC(=O)c2cc(C)ccc2C)cc1 | i
CCn1c(SCC(=O)Nc2ccc(C)c(C)c2)nnc1-c1ccccc1Cl | 4.3%
COc1ccc(NC(=S)Nc2ccccn2)c(OC)c1 | i
Cc1ccc(SCC(=O)Nc2ncn[nH]2)cc1 | 1.6%
CC(=O)N/C(=C\c1ccccc1)C(=O)NC(C(=O)O)C(C)C (centres undefined) | i
CCc1ccc(OCC(=O)NC2CC(C)(C)NC(C)(C)C2)c(Br)c1 | 0.2%
Cc1nc2scc(-c3ccccc3)c2c(=O)o1 | i
O=C(Nc1cccc(C(=O)Nc2ccccc2F)c1)c1ccccc1 | i
Cc1ccc(S(=O)(=O)Nc2cccc(Cl)c2Cl)c(C)c1C | i
Cc1nnc(SCc2cccc(CSc3nnc(C)s3)c2)s1 | i
Cc1ccc(SC(C)C(=O)NC2CCCC2)cc1 (centres undefined) | i
CN(C)C(=O)C1CCC2(C)C(=O)OCC12C (centres undefined) | i

Molecules shown so far containing a tert-butyl group, in the order listed:
SMILES | Mtb H37Rv
CC(C)(C)NC(=S)NCc1ccccc1 | i
Cc1oc(C(C)(C)C)cc1C(=O)NC(Cc1ccccc1)C(=O)O (centres undefined) | i
COc1ccc(S(=O)(=O)NC(C)(C)CC(C)(C)C)cc1 | i
